# TRPV1 PAM = HTS Assay for Compounds that Act as Potentiators of the Vanilloid Receptor 1; TRPV1-expressing cells, Fluo-8 calcium influx, capsaicin EC20 potentiation; host cell line not named in the record; control for the full effect not named in the record; potentiation, % at 8.33 µM; 0.02% of 320,000 active; active means potentiation above 80%; inconclusive means 30% to 80%; inactive means below 30%; further: 0% is about no effect
# Target sequence (Q8NER1 whole entry, looked up): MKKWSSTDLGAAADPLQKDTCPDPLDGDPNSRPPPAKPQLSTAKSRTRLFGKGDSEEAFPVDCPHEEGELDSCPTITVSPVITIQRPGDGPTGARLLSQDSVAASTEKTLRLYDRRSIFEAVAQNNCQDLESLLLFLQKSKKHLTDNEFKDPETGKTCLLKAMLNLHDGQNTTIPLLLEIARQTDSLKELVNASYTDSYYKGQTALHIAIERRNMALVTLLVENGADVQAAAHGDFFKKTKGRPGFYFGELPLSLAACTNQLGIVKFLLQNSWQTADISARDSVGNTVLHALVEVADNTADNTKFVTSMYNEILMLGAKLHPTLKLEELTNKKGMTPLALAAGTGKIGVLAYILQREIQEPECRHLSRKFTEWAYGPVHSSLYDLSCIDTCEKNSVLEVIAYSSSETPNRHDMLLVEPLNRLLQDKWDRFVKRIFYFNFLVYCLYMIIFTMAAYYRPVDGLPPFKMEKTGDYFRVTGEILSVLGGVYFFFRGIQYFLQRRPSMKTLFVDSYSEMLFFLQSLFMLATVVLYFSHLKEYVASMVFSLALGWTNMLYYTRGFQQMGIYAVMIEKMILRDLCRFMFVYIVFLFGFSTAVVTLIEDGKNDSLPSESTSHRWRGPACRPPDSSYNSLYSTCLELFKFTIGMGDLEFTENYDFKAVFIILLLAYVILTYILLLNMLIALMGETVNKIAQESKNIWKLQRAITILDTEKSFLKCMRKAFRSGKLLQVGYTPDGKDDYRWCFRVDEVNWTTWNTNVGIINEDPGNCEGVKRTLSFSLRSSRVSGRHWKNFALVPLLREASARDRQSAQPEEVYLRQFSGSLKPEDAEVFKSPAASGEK
#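 Fluo-8 calcium influx in TRPV1-expressing cells, kinetic read (ex 480/em 520 nm). Compound added and read 3 min for agonist activity, followed by capsaicin at EC20 final and 2 min further read for enhancement.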
# PINK1 modulator = A Quantitative High throughput Screen to Identify Chemical Modulators of PINK1 Expression; 0.2% of 410,000 active; PINK1 immunofluorescence, high-content cytometry, 24 h; Potency, µM (top dose mostly 76.6 µM), for the others: top-dose activation (PINK1 increase), most hits filed as activators; active = well fitted activation curve with a large enough effect; inconclusive = small, poorly fitted or top-dose-only effect; inactive = flat fitted curve, though single readings scatter; cell line not stated here;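 further: potency means the concentration at half of the fitted maximal effect; % of control where 0% means no effect; nearly all actives have a fitted effect of over 65% in size; a mitochondrial uncoupler was the plate control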
#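 Stable cell line treated 24 h with compounds at 5 concentrations (CCCP controls), then fixed and immunostained for PINK1 plus nuclear and cell stains; PINK1 immunofluorescence quantified by laser-scanning microplate cytometry.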
# ClpP mod = qHTS Assay for Activators of ClpP; ATP-dependent Clp protease proteolytic subunit (Bacillus subtilis (strain 168)), P80244; purified B. subtilis ClpP, FRET peptide cleavage, 20 min; Potency, µM (highest dose often 57.5 µM), inactives show at the highest dose activity change, negative = active; 1.9% of 340,000 active; AID 651965, 2013; active = well fitted falling curve with a large enough effect; inconclusive = small, poorly fitted or top-dose-only effect; inactive = no such curve, though single readings can be large or run the other way; further: potency means the concentration at half of the fitted maximal effect; the source files actives as falling curves though it sought activators and does not explain the sign; nearly all actives have a fitted effect of over 65% in size; many hits overshoot -100%
# Target sequence (P80244 whole entry, looked up): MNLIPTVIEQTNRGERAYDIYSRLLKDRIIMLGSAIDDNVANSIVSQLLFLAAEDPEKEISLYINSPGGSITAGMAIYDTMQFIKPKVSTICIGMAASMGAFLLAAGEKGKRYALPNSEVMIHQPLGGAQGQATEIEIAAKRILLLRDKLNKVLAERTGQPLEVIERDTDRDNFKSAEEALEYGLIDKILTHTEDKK
#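 FRET quenching reversal measured ClpP activation: 10 microg/mL B. subtilis ClpP at pH 8 with the FRET-FV decapeptide, read at 430 nm after 320 nm excitation. The 20-min minus 0-min signal was scaled between DMSO/no-enzyme wells and ADEP (5.8 microM final).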
# Menin-MLL FL inh = qHTS Assay for Inhibitors Targeting the Menin-MLL Interaction in MLL Related Leukemias: Competition With Fluorescein Labeled MLL-derived Peptide. 290,000 tested, under 10 active. FP activity change, % at 61.4 µM. Fluorescence polarization, fluorescein-MLL peptide displacement from menin. AID 1766, 2009; inconclusive = falling polarisation curve, or a change in total fluorescence; inactive = total fluorescence flat and polarisation flat or rising; no compound was filed as active; the % refers to the polarisation; negative = inhibition;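 further: % of control where 0% means no effect; inhibitors lower the polarisation; unlabelled MLL peptide was the positive control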
# TRPML1 agonist = qHTS for Agonists of the Human Mucolipin Transient Receptor Potential 1 (TRPML1); TRPML1-expressing cells, Ca2+ dye fluorescence, FDSS; host cell line not named in the record; reference of the full effect not given here; 0.12% of 410,000 active; AID 624414, 2012; activation, % (test concentration not listed); in the data active = activation above about 50%; inconclusive = about 30% to 50%; inactive = below about 30%; further: 0% is about no effect; the text of the record puts the active cut at 80%
#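 In this qHTS format, compounds were pin-transferred onto Ca8-dye-loaded TRPML1-DL cells induced with Tet overnight, and intracellular Ca2+ fluorescence was recorded kinetically for 110 s after a 10 s baseline. A subsequent 4uM final 54-4 (EC80) addition followed by a second 110 s read served as the antagonist phase.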
# Sfp inh = qHTS Assay for Inhibitors of Bacillus subtilis Sfp phosphopantetheinyl transferase (PPTase). 4'-phosphopantetheinyl transferase ffp (Bacillus subtilis), Q9F4F7. Biochemical Sfp PPTase activity, qHTS. Potency, µM, without a hit: max response, negative = inhibition, actives largely listed as inhibitors. 3.5% of 310,000 active; active means well fitted inhibition curve with a large enough effect; inconclusive means small, poorly fitted or top-dose-only effect, or another doubt; inactive means no such curve, though single readings can be large or run the other way;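 further: the enzyme is Sfp with the accession as filed and its product quenches rhodamine fluorescence; potency means the concentration at half of the fitted maximal effect; 0% = enzyme reaction without inhibitor and -100% = no enzyme wells; top concentration of the series not given in the record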
#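 Buffer: 50 mM Hepes-Na pH 7.6, 10 mM MgCl2, 0.01% Nonidet P-40, 0.01% BSA. Enzyme 15 nM, pre-exposed to compound 15 min; substrates then added and fluorescence change tracked over 30 min.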
# TRPML1 blocker = qHTS for Inhibitors of the Human Mucolipin Transient Receptor Potential 1 (TRPML1); TRPML1-inducible cells, Ca2+ dye fluorescence, FDSS; stronger effect = lower value; inhibition of EC80 agonist-evoked calcium signal; activity change, negative = inhibition, % (concentration not given with the values); 0.02% of 390,000 active; in the data active means activity change below about -50%; inconclusive means about -30% to -50%; inactive means above about -30%;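 further: stimulus is agonist 54-4 at its EC80 concentration; on the % scale 0 is the no-effect control and ±100 the full control effect; compound concentration not given in the record; the text of the record puts the active cut at -80%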
#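 TRPML1-DL cells, Tet-induced overnight (~16 h, 37 °C) at 1,500 cells/well, were loaded with Ca8 no-wash dye plus quencher for 45-90 min at room temperature. Compounds were pinned during FDSS kinetic reading; agonist 54-4 at EC80 (4 uM final) then added.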
# * = called active by the depositor; ? = inconclusive; . = no result given; & = joins results of further samples; [ ] = remark or other dose.
# Below each SMILES: TRPV1 PAM | PINK1 modulator | ClpP mod | Menin-MLL FL inh | TRPML1 agonist | Sfp inh | TRPML1 blocker
O=C(OCc1c(Cl)cccc1Cl)c1ccccn1
→ 13 | 1.2% | 0.8% | 3.2 | -0.3 | 5% | -14
CN1C(=O)CSc2ccc(NC(=O)NCc3ccc(F)cc3)cc21
→ -9 | 0.8% | -3.6% | -0.3 | -1.1 | -19% | -1
COc1ccc(-c2csc(NC(=O)CSCC(=O)Nc3cc(C)on3)n2)cc1OC
→ -7 | 0.4% | . | . | 2.8 | . | 3
Cc1ccc(-n2ncc3c(NCCCn4ccnc4)ncnc32)cc1Cl
→ . | 0.4% | 4.2% | . | -0.6 | . | 11
CCOC(=O)/C(=C/Nc1ccc(F)c(F)c1)[N+](=O)[O-]
→ 1 | 1.2% | . | -4.2 | 0.8 | 7% | -12
COCCNC(=O)c1ccc(-n2c(SCc3cc(F)ccc3F)nc3ccccc3c2=O)cc1
→ -12 | 2.8% | -25% | 7.7 | 1.4 | -22% | -21
CC(/C=C1\SC(=S)N(CCC(=O)Nc2cccc(C(=O)O)c2)C1=O)=C\c1ccccc1
→ 5 | -1.2% | . | . | 1.5 | -10% | -6
NC(=O)c1cc2ccccc2o/c1=N/NC(=O)c1ccccc1
→ 1 | 0.0% | -3.2% | -2.3 | . | -18% | .
O=C(CNC(=O)c1ccco1)NCC(c1ccco1)N1CCCCC1 (centres undefined)
→ 8 | -0.6% | 0.9% | . | 0.0 | . | -3
N#CC(=Cc1ccncc1)c1ccccc1
→ . | -5.4% | -7.9% | . | 2.4 | . | 7
O=C1C(=Cc2cn(-c3ccccc3)nc2-c2ccc(OCc3ccccc3F)cc2)SC(=S)N1CCS(=O)(=O)O
→ . | 0.3% | -0.3% | . | 4.3 | . | 4
O=S(=O)(c1cccs1)n1cccn1
→ -4 | 0.2% | -4.2% | 2.8 | -0.5 | 0% | -9
CCCCN1C(=O)C(CC(=O)NC2CC2)CC(C(=O)N(C(C)C)C(C)C)=C1C (centres undefined)
→ . | 0.7% | -0.3% | . | -0.7 | . | -12
COc1ccc(-c2cc([C@H]3[C@@H]4C=CCC[C@@]4(C)C(=O)N3Cc3ccccc3)ccc2F)cc1
→ -25 | 14% | -23% | -1.1 | 0.3 | -11% | -4
O=C(COC(=O)Cc1cccc2ccccc12)Nc1ccccc1-c1ccccc1
→ -2 | 5.2% | -5.8% | -4.2 | 2.3 | ? | 7
c1ccc(-c2nc3ccccc3c3nc4ccccc4n23)cc1
→ 3 | 5.5% | 0.1% | 2.1 | -0.8 | 6% | -9
CCc1cccc(NC(=O)Cn2c(=O)n(CCC(=O)NCC3CCCO3)c(=O)c3cc(OC)c(OC)cc32)c1 (centres undefined)
→ 12 | 1.6%&1.3% | 4.5% | -0.7 | -0.2&-0.1 | 9% | -13&3
CCOc1ccc(-n2c(=O)c3sccc3n(Cc3cccc([N+](=O)[O-])c3)c2=O)cc1
→ -10 | 0.4% | 1.2% | -1.0 | 0.6 | 6% | 33
CC(NC(=O)Cc1cccs1)C(c1cccs1)N1CCN(c2ccccc2)CC1 (centres undefined)
→ . | . | -0.7% | . | 0.4 | . | 28
O=C(c1cc(=O)c2cc(Cl)ccc2o1)N(Cc1ccccc1)C1CCS(=O)(=O)C1 (centres undefined)
→ . | 0.8% | 0.6% | . | 3.1 | . | 20
O=C(NC1CC1)c1cc(=O)c2ccccc2o1
→ 1 | -0.7% | -0.5% | -1.6 | 0.3 | 5% | 6
O=C(CCCn1c(=O)c2cccn2c2cccnc21)N1CCN(c2ccccc2F)CC1
→ 2 | -1.9% | -0.9% | . | -0.2 | 4% | -13
Cn1ncc(Cl)c1C(=O)N1CCN(c2ncccn2)CC1
→ 10 | -0.8% | -11% | -1.0 | 0.7 | 28% | 59
CCOC(=O)N1CCC(Nc2c(Nc3ccc(F)cc3)c(=O)c2=O)CC1
→ 11 | 6.8% | 0.6% | 4.3 | -0.4 | 8% | 20
Cc1c(NC(=O)c2ccc3c(c2)C(=O)N(CC2CCCO2)C3=O)cccc1C(=O)O (centres undefined)
→ 2 | 2.5% | 1.7% | 2.8 | 1.1 | 20% | 9
COc1cc(F)ccc1S(=O)(=O)NCc1cccnc1
→ -3 | -0.8% | -0.2% | -7.6 | -0.6 | -2% | 23
CCN(Cc1ccccc1)C(c1ccc(C(F)(F)F)cc1)c1nnnn1C(C)(C)C (centres undefined)
→ . | 2.3% | -1.9% | . | 0.7 | . | 8
O=C(c1ccco1)N1CCN(c2ncnc3c2oc2ccccc23)CC1
→ -16 | -0.6% | -12% | 1.4 | 4.9 | 7% | -6
O=C(NCc1ccccn1)c1cc(-c2ccccc2Cl)nc2ccccc12
→ 1 | -1.9% | -4.0% | 3.9 | 1.6 | -7% | 0
COc1ccc(Nc2nc(N)nc(CN3CCC(C)CC3)n2)cc1
→ -8 | 0.1% | -1.1% | 0.4 | -0.3 | 4% | -3

# Below each SMILES: TRPV1 PAM | PINK1 modulator | ClpP mod | Menin-MLL FL inh | TRPML1 agonist | Sfp inh | TRPML1 blocker
O=C1c2ccccc2C(=O)N1c1ccc(Cl)cc1
→ -5 | . | . | 4.9 | . | 8% | .
CC(C)c1ccc(N(C(=O)CNC(=O)c2ccco2)C(C(=O)NC2CCCC2)c2ccncc2)cc1 (centres undefined)
→ -5 | -0.9% | . | -7.9 | 0.6 | 12% | 8
CCN(CC(=O)Nc1cc(Cl)ccc1C)C(=O)c1cc(S(=O)(=O)N2CCCCCC2)ccc1OC
→ 5 | 3.8% | -1.3% | . | -0.9 | . | 16
COc1cc(C2SCC(=O)N2CCCN(C)C)cc(OC)c1OC (centres undefined)
→ 5 | 0.0% | -1.9% | 6.3 | -0.1 | -15% | -10
COc1ccccc1NC(=O)c1ccc(COc2ccc(C)c(C)c2)o1
→ . | 0.3% | -24% | . | -0.2 | . | 13
COc1ccc(C)cc1Nc1cc(C)nc2ncnn12
→ -13 | 3.0% | -4.5% | 3.5 | 0.0 | 9% | -11
CCc1cccc(NC(=O)c2cc(S(=O)(=O)N(C)C)ccc2N2CCCC2)c1
→ 4 | -0.9% | -1.1% | -0.5 | 1.3 | 2% | -15
COc1ccc(-c2nc3ccccc3nc2-c2ccc(OC)c(OC)c2)cc1OC
→ -13 | 0.5% | -1.3% | 2.6 | . | 5% | .
Cc1ccc(Nc2nc3ccccc3n3nnnc23)cc1
→ -2 | 12% | . | 3.2 | 4.7 | 18% | 5
O=C(Nc1cccc(Cl)c1)c1cnn2cccnc12
→ -11 | 0.8%[38.3 µM] | -0.3% | 0.6 | 0.2 | 10% | 9
Cc1cccc(NC(=O)C[n+]2cccc(C)c2)c1
→ 2 | -0.6% | 0.7% | -3.7 | 0.3 | 5% | 8
Cc1noc(C)c1COc1ccc(C(=O)OCC(=O)Nc2cccc(S(=O)(=O)N3CCOCC3)c2)cc1
→ 8 | 1.4% | -1.1% | 1.9 | 0.1 | 15% | 13
COCCN(C(=O)CCC(=O)Nc1nccs1)C(C(=O)NC(C)(C)C)c1ccc(F)cc1 (centres undefined)
→ 3 | -0.2% | . | -1.2 | -0.2 | 12% | 13
N#C/C(=C\c1ccc(O)c(Br)c1)C(=O)NCc1ccccc1
→ 1 | 3.4% | . | 15 | 0.9 | -20% | 24
O=C(NCC(=O)N1CCN(C(=O)c2ccco2)CC1)c1cccc(Cl)c1
→ -16 | -0.5% | -1.6% | . | 0.5 | . | -9
COc1ccc(-c2ocnc2C(=O)NCc2nn(-c3ccccc3)nc2C)cc1
→ 5 | 1.5% | 4.2% | 1.0 | 2.2 | ? | 19
CCC1(c2ccc(F)cc2)NC(=O)N(CC(=O)Nc2ccc(-c3nc4ccc(C)cc4s3)cc2)C1=O (centres undefined)
→ 1 | 22% | 7.9µM* | 1.5 | 0.5 | -10% | 5
Cc1ccc(N2CC(C(=O)N3CCN(C(=O)c4ccco4)CC3)CC2=O)cc1 (centres undefined)
→ -5 | . | 0.7% | 1.6 | -0.2 | 3% | -1
CC1CCCCC1NC(=O)CN1CCN(Cc2ccccc2Cl)C1=O (centres undefined)
→ 17 | -0.7% | 2.2% | 3.0 | -0.6 | 10% | -7
Cn1c(CCNC(=O)c2ccco2)nc2cc(NC(=O)c3ccco3)ccc21
→ 1 | -0.3% | 1.3% | 1.1 | 1.1 | -10% | 3
CCOc1ccccc1NC(=O)CN(c1ccc(C)cc1)S(=O)(=O)c1c(C)noc1C
→ 0 | -0.7% | -0.3% | 5.8 | -1.0 | 22% | 15
CC1(c2nnnn2Cc2ccccc2)CCC(=O)N1CC1CCCCC1 (centres undefined)
→ . | -0.4% | 0.9% | . | 3.9 | . | .
CC(=O)C[C@@H](O)CC(=O)[C@@H]1OC(=O)CCCCC/C=C/Cc2ccccc21
→ . | 4.4% | -4.1% | . | 0.4 | . | -13
Cc1ccc(NC(=O)c2c(Cl)n(C)c3ccccc23)cc1
→ -15 | 3.1% | -3.7% | 5.3 | 1.3 | 13% | 21
c1ccc2c(c1)ncn2Cc1nnc2sc(-c3ccncc3)nn12
→ -22 | 1.0%[38.3 µM] | -0.3% | 4.9 | -0.1 | 16µM* | -1
C=C[C@]12CC[C@H](OC(C)=O)CC1=CCC1C2CC[C@@]2(C)C1CCC21OCCO1 (some centres undefined)
→ . | 6.7% | . | . | -0.7 | . | 37
Cc1ccc(/C=C/C(=O)Nc2ccc(S(=O)(=O)Nc3ncccn3)cc2)cc1
→ 2 | 0.2% | -2.1% | 1.7 | 1.0 | 22% | 23

# As a short view, 3 of the compounds above:
# Below each SMILES: TRPV1 PAM | PINK1 modulator | ClpP mod | Menin-MLL FL inh | TRPML1 agonist | Sfp inh | TRPML1 blocker
O=C(OCc1c(Cl)cccc1Cl)c1ccccn1
→ 13 | 1.2% | 0.8% | 3.2 | -0.3 | 5% | -14
CN1C(=O)CSc2ccc(NC(=O)NCc3ccc(F)cc3)cc21
→ -9 | 0.8% | -3.6% | -0.3 | -1.1 | -19% | -1
COc1ccc(-c2csc(NC(=O)CSCC(=O)Nc3cc(C)on3)n2)cc1OC
→ -7 | 0.4% | . | . | 2.8 | . | 3

# Screens (PubChem)
